Ecoli rRNA inh – inhibitors of bacterial rRNA selective over humanized ribosomes; E. coli WT GFP vs humanized-ribosome RFP mutants, fluorescence, 24 h; stronger effect = lower value; DMSO median 0, no signal -100; 350,000 compounds, 1.6% hits; GFP signal change (wild-type ribosome), % (test concentration not listed);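 active means significant combined selectivity score with lowered wild-type GFP, culture density cut under 30%, mutant RFP and density less affected; inactive means any of these conditions unmet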; further: one replicate is shown; some compounds called inactive have numbers as strong as hits
HNF4A DNA FP – change in binding of human HNF4 alpha to DNA. HNF4a-FITC DNA binding, fluorescence polarization, 1 h. activity change, % at 10 µM. 360,000 compounds, 0.3% hits. AID 1224865; in the data active means activity change above about 30%, passing the limit was not always enough;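 further: controls were the assay level and a saturating level of protein; the project sought stronger binding though the title names inhibitors; some compounds called inactive have numbers as strong as hits; positive values seem to mean higher polarization but the record does not say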
Target sequence (P41235 whole entry, looked up): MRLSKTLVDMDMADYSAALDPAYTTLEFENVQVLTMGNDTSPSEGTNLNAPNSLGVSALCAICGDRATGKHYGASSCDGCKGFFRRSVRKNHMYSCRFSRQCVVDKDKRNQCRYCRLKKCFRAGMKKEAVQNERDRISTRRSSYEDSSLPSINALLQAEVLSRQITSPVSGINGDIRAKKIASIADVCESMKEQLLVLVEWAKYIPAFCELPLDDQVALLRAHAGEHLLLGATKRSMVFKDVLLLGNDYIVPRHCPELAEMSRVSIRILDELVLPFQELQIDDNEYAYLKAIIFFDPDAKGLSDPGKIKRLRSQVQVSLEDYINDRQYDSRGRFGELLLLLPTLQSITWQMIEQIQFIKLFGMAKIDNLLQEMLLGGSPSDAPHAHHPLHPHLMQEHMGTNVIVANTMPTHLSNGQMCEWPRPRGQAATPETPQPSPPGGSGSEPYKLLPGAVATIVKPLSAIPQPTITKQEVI
Vif A3G – HIV-1 Vif–A3G interaction blockers – biochemical, TR-FRET, GST-Vif 1-94, biotin-A3G peptide, dose response retest, primary screen (AID 1117319). TR-FRET GST-Vif / biotin-A3G peptide binding; higher % means a stronger effect; test concentration not given here; strong numbers were not always called active. one-dose inhibition, %; IC50 in µM for titrated hits. 260,000 compounds, 0.57% hits;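 active means above the screen mean plus three standard deviations and confirmed in dose response; inconclusive means results disagree or hit not tested in dose response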;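 further: Vif residues 1-94 fused to GST binding biotinylated APOBEC3G peptide 110-148; 0% = full assay without inhibitor and 100% = GST in place of GST-Vif; retest series ran down from 100 µM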
FGF22 binding – shifts melting point of recombinant human FGF22 | AID 651658 | Q9HCT0 | 340,000 compounds, 1.5% hits | calls only at 9.99 µM | recombinant FGF22 thermal shift, SYPRO orange fluorescence; percent of sucrose octasulfate shift, DMSO zero;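 active means melting point raised past a set limit in the mean and every replicate; inconclusive means no clear call; three in four hits are not shown here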
Target sequence (Q9HCT0 whole entry, looked up): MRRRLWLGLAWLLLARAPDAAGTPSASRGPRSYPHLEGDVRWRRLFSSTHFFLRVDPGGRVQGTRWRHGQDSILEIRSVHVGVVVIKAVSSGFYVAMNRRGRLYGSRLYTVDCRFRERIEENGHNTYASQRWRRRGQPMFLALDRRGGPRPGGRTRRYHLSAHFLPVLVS
ALR inh – inhibitors of human sulfhydryl oxidase ALR. P55789. purified ALR, DTT oxidation, H2O2 HRP-luminol luminescence. inhibition, % (concentration not given with the values). 290,000 compounds, 3.8% hits;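 active means mean and each replicate at 75% or more; inconclusive means only one of the two met; inactive means neither met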;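 further: stock transfer was 7.5 nL into about 7.5 µL; 0% = neutral wells and 100% = wells with inactivated enzyme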
AF4-AF9 inh – blocks AF4 peptide binding to human AF9; AlphaScreen, biotin-AF4 peptide binding to FLAG-AF9; AID 651704; 350,000 compounds, 0.47% hits; inhibition, % at 10 µM;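 active means every replicate reaching a set inhibition limit, whatever the replicate mean, cut at about 25% in these data; inconclusive means mean inhibition reaches that limit but some replicates miss it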;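 further: 0% = plate neutral control median and 100% = total signal loss; the record names both 10 and 1 µM as test concentration; the first replicate is given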
Ecoli growth – E. coli growth inhibition. Escherichia coli growth, OD600, 23 h; stronger effect = lower value. 330,000 compounds, 0.21% hits. OD600 absorbance (no concentration beside the values). AID 1053175;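 active means OD600 absorbance below the run mean of sample wells minus 3.6 SD, in any replicate, cut at about 0.56 in these data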;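 further: stock transfer was 300 nL into about 60 µL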
Ecoli rRNA inh OD600 – further read-out of Ecoli rRNA inh, marked with its call; OD600 change, %; measured here: OD600 growth;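 optical density of the mix in the first replicate; 0 = DMSO median and -100 = no signal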
Ecoli rRNA inh RFP – further read-out of Ecoli rRNA inh, marked with its call; RFP signal change, %; measured here: RFP humanized mutant strains;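 first replicate; 0 = DMSO median and -100 = no signal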
* hit, by the source's call; i = inactive; ? = inconclusive; · = not tested or not shown. Only part of the results is shown. The share of hits here may be higher or lower than overall.

SMILES | Ecoli rRNA inh | Ecoli rRNA inh OD600 | Ecoli rRNA inh RFP | HNF4A DNA FP | Vif A3G | FGF22 binding | ALR inh | AF4-AF9 inh | Ecoli growth
COC(=O)C1=C(c2ccc(F)cc2OCc2ccccc2)C[C@@H]2CC[C@H]1N2C(=O)NCc1ccc2c(c1)OCO2 | -0.5 | -9.2 | 13.5 | -2.7 | · | i | -13.7 | 0.6 | ·
Cc1sc2ncn(CC(=O)NCCCC(=O)N3CCC4(CC3)OCCO4)c(=O)c2c1C | · | · | · | 4.7 | -7.7% | · | -3.5 | · | 0.707
CCOC(=O)c1cccc(NC(=O)c2c(O)[nH]c(=O)[nH]c2=O)c1 | · | · | · | 1.8 | · | · | 60.3 | · | 0.674
Cc1c(C(=O)Nc2ccccc2)cc(-c2ccccc2)n1CCCN1CCOCC1 | -10.7 | -6.5 | -0.2 | -1.2 | · | i | -5.8 | 7.4 | 0.692
CN(C)c1ccc(C=C2C(=O)NC(=O)NC2=O)cc1 | 17.8 | 2.9 | -1.5 | -0.6 | 2.0% | i | · | -1.6 | 0.678
Cc1cc(OC(=O)CCNC(=O)OC(C)(C)C)c2c3c(c(=O)oc2c1)CCC3 | · | · | · | 0.5 | -3.8% | · | ? | · | 0.614
O=c1[nH]c2cc(Cl)ccc2n1C1CCN(Cc2ccc(-c3nc4ccccc4nc3-c3ccccc3)cc2)CC1 | 5.4 | 14.4 | 10.1 | · | · | i | · | 0.1 | ·
O=S(=O)(c1ccc(F)cc1)N1CCCC1c1cccnc1 (stereo unspecified) | 6.0 | 0.6 | -2.0 | -1.1 | -8.3% | i | 1.8 | -0.5 | 0.674
COc1ccc(C(CNC(=O)Cc2ccc(Cl)c(Cl)c2)N(C)C)cc1 (stereo unspecified) | -25.1 | -29.4 | -1.4 | 1.4 | · | i | 1.0 | 1.2 | 0.615
O=Cc1cn(Cc2ccc(F)cc2)c2ccccc12 | -1.7 | -3.6 | -3.9 | 6.4 | -3.5% | i | -5.6 | 1.7 | 0.693
COC(=O)[C@@H]1[C@@H](CO)[C@@H]2Cn3c(ccc(-c4ccccc4F)c3=O)[C@H]1N2C(C)=O | 6.2 | 4.8 | -2.1 | · | · | i | · | 0.7 | ·
N/C(=N\N=C/c1ccc(-c2ccc(O)c(C(=O)O)c2)o1)N[N+](=O)[O-] | · | · | · | -46.9 | 15.2µM* | · | 38.1 | · | ·
CCC(N)Cc1c[nH]c2ccccc12 (stereo unspecified) | 14.7 | 8.1 | -0.8 | 2.2 | -2.1% | i | · | 2.5 | ·
COc1nc2ccccc2c(=O)n1-c1ccc(Cl)cc1 | -13.6 | -8.8 | -14.1 | 0.7 | · | i | -3.6 | -7.3 | 0.672
CN(C)CC1CSCCC1(O)c1cccc(Cl)c1 (stereo unspecified) | · | · | · | -1.3 | -8.4% | · | -4.5 | · | 0.698

As entered above:
`Cc1sc2ncn(CC(=O)NCCCC(=O)N3CCC4(CC3)OCCO4)c(=O)c2c1C` @ Vif A3G: -7.7%
`CN(C)CC1CSCCC1(O)c1cccc(Cl)c1` (stereo unspecified) @ Vif A3G: -8.4%

Entries of single compounds, looked up by structure:
`COC(=O)C1=C(c2ccc(F)cc2OCc2ccccc2)C[C@@H]2CC[C@H]1N2C(=O)NCc1ccc2c(c1)OCO2` is listed with Ecoli rRNA inh = -0.5; Ecoli rRNA inh OD600 = -9.2; Ecoli rRNA inh RFP = 13.5; HNF4A DNA FP = -2.7; Vif A3G = ·; FGF22 binding = i; ALR inh = -13.7; AF4-AF9 inh = 0.6; Ecoli growth = ·
`O=Cc1cn(Cc2ccc(F)cc2)c2ccccc12` is listed with Ecoli rRNA inh = -1.7; Ecoli rRNA inh OD600 = -3.6; Ecoli rRNA inh RFP = -3.9; HNF4A DNA FP = 6.4; Vif A3G = -3.5%; FGF22 binding = i; ALR inh = -5.6; AF4-AF9 inh = 1.7; Ecoli growth = 0.693

Returning to the listing with the four entries that preceded the break.
SMILES | Ecoli rRNA inh | Ecoli rRNA inh OD600 | Ecoli rRNA inh RFP | HNF4A DNA FP | Vif A3G | FGF22 binding | ALR inh | AF4-AF9 inh | Ecoli growth
N/C(=N\N=C/c1ccc(-c2ccc(O)c(C(=O)O)c2)o1)N[N+](=O)[O-] | · | · | · | -46.9 | 15.2µM* | · | 38.1 | · | ·
CCC(N)Cc1c[nH]c2ccccc12 (stereo unspecified) | 14.7 | 8.1 | -0.8 | 2.2 | -2.1% | i | · | 2.5 | ·
COc1nc2ccccc2c(=O)n1-c1ccc(Cl)cc1 | -13.6 | -8.8 | -14.1 | 0.7 | · | i | -3.6 | -7.3 | 0.672
CN(C)CC1CSCCC1(O)c1cccc(Cl)c1 (stereo unspecified) | · | · | · | -1.3 | -8.4% | · | -4.5 | · | 0.698
CCOC(=O)c1ccc(N2C(=O)CC(N3CC=C(c4ccc(F)cc4)CC3)C2=O)cc1 (stereo unspecified) | · | · | · | 11.4 | -2.1% | · | · | · | 0.692
CCn1ccnc1CN1CCCC(C(=O)c2cc(Cl)ccc2OC)C1 (stereo unspecified) | -8.9 | -11.7 | 0.7 | 15.3 | -2.0% | i | -3.0 | 8.3 | 0.645
O=C(COc1ccc(Cl)cc1)NC1CN2CCC1CC2 (stereo unspecified) | · | · | · | -2.9 | -0.6% | · | 0.5 | · | 0.725
CN(C)C(=O)Oc1ccc(OC(=O)c2ccccc2)cc1 | · | · | · | 2.0 | 4.6% | · | -0.3 | · | 0.647
O=C(NN=Cc1ccc(N(CCCl)CCCl)cc1)c1cccc([N+](=O)[O-])c1 | -12.4 | 5.1 | -5.8 | -4.0 | · | i | · | -3.1 | ·
COC(=O)c1cn(C(=O)c2cccc3ccccc23)c2ccccc12 | 3.6 | 2.8 | -2.1 | 2.5 | -13.4% | i | 30.0 | -0.3 | 0.659
Cc1ccc(S(=O)(=O)N(C)N=O)cc1 | 3.9 | 7.4 | 19.1 | 0.1 | · | i | -20.2 | -1.8 | 0.705
O=c1cccc2n1CC1CC2CN(S(=O)(=O)c2ccc(F)cc2)C1 (stereo unspecified) | 13.8 | 11.6 | 0.2 | 1.8 | 3.0% | i | 5.1 | ? | 0.697
CNC(C)Cc1ccccc1 (stereo unspecified) | 10.3 | 3.8 | 0.5 | 1.5 | · | i | · | · | 0.701

Screening data from PubChem.
